rRNA inh HTS – reduced GFP signal of wild-type E. coli, primary screen, bacterial rRNA inhibitor project, GFP/RFP fluorescence, OD600, single point | E. coli WT GFP vs humanized-ribosome RFP mutants, 24 h; hits give low values; DMSO median 0, no signal -100 | GFP signal change (wild-type ribosome), % (no concentration beside the values) | hit rate 1.6% among 350,000 | AID 720706, 2013;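 active = significant combined selectivity score with lowered wild-type GFP, culture density cut under 30%, mutant RFP and density less affected; inactive = any of these conditions unmet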; note: one replicate is shown; some compounds called inactive have numbers as strong as hits
A1 inh – caspase 3/7 activation in MEF A1-2A-BIM cells, primary screen, A1 inhibitor project, cell-based, luminescence, HTS | Caspase-Glo 3/7 luminescence, 3 h; percent of clofoctol response, vehicle zero | caspase activation, % (no concentration beside the values) | hit rate 0.066% among 330,000 | AID 2462, 2010;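 active = over half of replicate activation scores above 10%, or exactly half above 10 with the replicate mean above 10; inconclusive = replicate mean below 10 yet half the replicates above 10; inactive = over half of replicates below 10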;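 note: wells of about 30 µL received 50 nL stock; many hits fall short of the cut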
ALR inh – inhibitors of human ALR sulfhydryl oxidase, primary screen, biochemical, H2O2 detection, HRP-luminol luminescence, single point; FAD-linked sulfhydryl oxidase ALR (Homo sapiens), P55789; purified ALR, DTT oxidation; inhibition, % (concentration not given with the values); hit rate 3.8% among 290,000;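 active = mean and each replicate at 75% or more; inconclusive = only one of the two met; inactive = neither met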;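 note: stock transfer was 7.5 nL into about 7.5 µL; 0% = neutral wells and 100% = wells with inactivated enzyme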
Target sequence (P55789 whole entry, looked up): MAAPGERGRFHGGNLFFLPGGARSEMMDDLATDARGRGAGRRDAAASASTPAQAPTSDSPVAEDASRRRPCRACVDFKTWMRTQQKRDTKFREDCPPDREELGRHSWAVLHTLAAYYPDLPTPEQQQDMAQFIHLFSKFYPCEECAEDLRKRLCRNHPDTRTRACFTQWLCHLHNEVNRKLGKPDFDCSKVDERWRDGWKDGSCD
LANA-H2B inh – blockers of LANA interaction with H2A/H2B – biochemical, FP readout, HTS, primary screen; hit rate 0.6% among 320,000; Protein LANA1 (Human herpesvirus 8 type P (isolate GK18)), Q9QR71; cell-free LANA-H2A/H2B peptide, fluorescence polarization; AID 2629, 2010; inhibition, % (concentration not given with the values); in the data active = inhibition mostly above about 10%, no sharp cut-off; inactive = mostly below about 6.7%;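 note: stock transfer was 7.5 nL into about 10 µL; 0% = median of vehicle wells and 100% = median of positive control wells; one replicate is shown; the record names a cut of 25% in any replicate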
Calb FLC – C. albicans growth inhibition with fluconazole, primary screen, CaCi-2 strain, Alamar Blue fluorescence; C. albicans CaCi-2 (fluconazole-resistant clinical isolate) + fluconazole, 48 h; growth inhibition, % (test concentration not listed); hit rate 0.57% among 300,000; AID 1979, 2009;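 active = most replicates above 75%; inconclusive = exactly half above 75%; inactive = most below 75%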;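 note: all wells also contain fluconazole at 8 µg/ml as a sub-toxic cotreatment; 0% = median of DMSO wells and 100% = median of geldanamycin control wells; wells of about 8 µL received 7.5 nL stock; the first replicate is given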
T cruzi repl – inhibitors of intracellular T. cruzi growth, primary screen, luminescence, NIH3T3 host cells | T. cruzi beta-gal in NIH3T3, 90 h | inhibition, % (concentration not given with the values) | hit rate 1.4% among 300,000;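 active = mean inhibition across valid replicates above about 55%, limit read from the data; inconclusive = mean below that limit but half or more replicates reach it; inactive = mean below it, under half of replicates reach it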;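 note: signal also drops with host cell toxicity which is not excluded here; 0% = plate median of DMSO wells and 100% = zero luminescence signal; higher percent means less beta-gal luminescence so fewer parasites; stock transfer was 50 nL into about 50 µL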
Beta2AR agonist – beta2AR agonists driving receptor internalization, primary screen, cell-based, FAP fluorogen, flow cytometry | hit rate 0.43% among 340,000 | response, % (test concentration not listed) | Beta-2 adrenergic receptor (Homo sapiens), P07550 | Am2.2-beta2AR cells; reference of the scale not given here;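 active = response above a set limit, near 3 SD of response in nonfluorescent compounds, cut at about 42% in these data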;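 note: stock transfer was 100 nL into about 11 µL; a reference agonist was the positive control; negative values mostly stem from fluorescent compounds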
Target sequence (P07550 whole entry, looked up): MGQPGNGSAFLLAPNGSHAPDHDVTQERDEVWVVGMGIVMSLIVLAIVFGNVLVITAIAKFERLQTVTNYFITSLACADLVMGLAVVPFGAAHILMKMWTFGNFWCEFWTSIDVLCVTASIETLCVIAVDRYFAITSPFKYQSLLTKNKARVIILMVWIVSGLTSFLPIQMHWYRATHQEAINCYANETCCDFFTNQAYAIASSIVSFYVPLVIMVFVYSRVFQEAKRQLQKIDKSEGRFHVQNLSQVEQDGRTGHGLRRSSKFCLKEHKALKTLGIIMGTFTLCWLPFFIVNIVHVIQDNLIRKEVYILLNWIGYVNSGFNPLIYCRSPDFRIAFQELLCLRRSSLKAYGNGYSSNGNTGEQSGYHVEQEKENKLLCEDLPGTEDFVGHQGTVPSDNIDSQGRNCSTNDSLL
Beta cell apopt – inhibitors of cytokine-induced beta cell apoptosis, primary screen, luminescence; AID 435005, 2010; INS-1E cytokine-induced death, ATP luminescence, 48 h; percent of positive-control rescue, neutral wells zero; protection from apoptosis, % (concentration not given with the values); hit rate 0.8% among 300,000;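 active = all replicates at 75% or more, or half of them and the mean; inconclusive = half reach 75% but not the mean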;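 note: 0% = cytokine-treated negative control wells and 100% = positive control rescue; higher means more ATP so stronger rescue from cytokine killing; wells of about 40 µL received 100 nL stock; the first replicate is given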
rRNA inh HTS OD600 – further read-out of rRNA inh HTS, marked with its call; OD600 change, %; measured here: OD600 growth;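 optical density of the mix in the first replicate; 0 = DMSO median and -100 = no signal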
rRNA inh HTS RFP – second read-out of rRNA inh HTS, no call of its own (marks repeat the call); RFP signal change, %; measured here: RFP humanized mutant strains;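 first replicate; 0 = DMSO median and -100 = no signal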
The depositor's hits bear a star; ? = inconclusive; . = not tested or not shown. Only part of the results is shown, so the mix of outcomes need not match the whole.

Under each structure – rRNA inh HTS OD600	LANA-H2B inh	A1 inh	rRNA inh HTS	Calb FLC	ALR inh	Beta cell apopt	Beta2AR agonist	T cruzi repl	rRNA inh HTS RFP
CC1=C(C(=O)OC(C)C)C(C)NC(=O)N1 (stereo unspecified)
 : .	4.6	1.3	.	1	-14	-6	-3	-23	.
CCOCc1nnc(NC(=O)c2ccco2)s1
 : .	-4.3	1.9	.	6	-1	-1	-4	-7	.
O=C(CCc1ccccc1)NNC(=O)c1ccco1
 : .	0.5	0.3	.	-3	-21	0	1	-2	.
CC(C)C[C@H](NC(=O)[C@@H]1Cc2c([nH]c3ccccc23)C2c3ccccc3C(=O)N21)C(=O)NCC1CCCO1 (stereo partly specified)
 : .	-7.1	0.6	.	2	-7	-2	38	14	.
COc1ccccc1-n1cnc2cc(C(=O)NC3CCCC3)ccc21
 : .	-3.2	0.6	.	-9	15	0	-5	-4	.
O=C(NC1CCCC1)c1ccc(CS(=O)(=O)Cc2ccccc2F)o1
 : 4	-4.5	0.7	6	4	-4	2	5	-11	-3.6
COc1ccc(NC(=O)C(c2cc3c(cc2[N+](=O)[O-])OCO3)N(C)C)cc1 (stereo unspecified)
 : 19	1.8	-0.9	0	2	21	5	-1	-12	-4.9
CC(C)(C)C(=O)N(Cc1nc2ccccc2c(=O)[nH]1)Cc1cccs1
 : .	-0.5	0.8	.	-24	-3	3	-7	-12	.
COc1ccccc1NC(=O)CC(=O)CSc1nnc(-c2ccc(C)cc2)n1-c1ccccc1
 : .	-3.5	0.2	.	28	2	-5	23	10	.
C=CCn1c(SCC(=O)NC(=O)NCc2ccco2)nc2sc(C)c(C)c2c1=O
 : .	-3.0	1.5	.	9	.	12	-5	8	.
Cc1ccc(-c2noc(CCC(=O)N3CCCC3)n2)cc1
 : .	-1.7	0.0	.	21	1	-8	6	.	.
CC1CCCN(C(=O)C2c3ccccc3C(=O)N3CCc4ccccc4C23)C1 (stereo unspecified)
 : .	-3.4	0.3	.	24	-2	-3	0	-3	.
Cc1ccc(-c2noc(CN3CCOCC3)n2)cc1
 : .	-0.2	0.5	.	-4	-4	-8	1	-10	.
COc1ccc(NC(=O)CCCN(C)S(=O)(=O)c2ccc(C)cc2)cc1
 : .	1.8	0.1	.	7	0	3	7	-1	.
CC(=O)c1ccc(OCC(=O)NC2CCS(=O)(=O)C2)cc1 (stereo unspecified)
 : .	-2.3	0.0	.	2	-3	-6	0	7	.
COc1ccc(S(=O)(=O)N(CC(=O)NCc2ccccn2)c2ccc(Cl)cc2)cc1
 : -7	-0.5	0.2	-1	-9	.	1	-7	10	1.9
CCOCCn1c(=NC(=O)c2cc(Cl)sc2Cl)sc2cc(S(N)(=O)=O)ccc21
 : .	0.6	0.5	.	-16	3	-10	.	7	.
O=C(Nc1ccc2c(c1)OCO2)Nc1ccccn1
 : 6	-5.6	-5.4	16	-13	.	3	-6	-6	4.0
O=C(N/N=C/c1ccc(O)cc1)c1cc(-c2ccccc2)nc2ccccc12
 : -13	-0.8	-1.7	-11	18	30	9	-9	4	3.7
O=C(NNC(=O)C1CCC1)c1cccc(Cl)c1
 : 6	-3.3	0.8	4	.	-1	-6	0	.	-5.0
Cc1c(C(=O)OCC(=O)N2c3ccccc3CC2C)oc2ccccc12 (stereo unspecified)
 : .	-2.2	0.2	.	-17	-6	.	13	4	.
COCCCNc1oc(-c2ccccc2Cl)nc1C#N
 : -20	3.7	0.4	-16	-13	6	4	-2	-3	-3.9
CCOc1ccc(CN(C)C(=O)c2ccc3ccccc3n2)cc1
 : -2	-1.7	0.6	-1	4	-53	-5	-3	-8	3.3
C=C(C)CSc1nnc2n(N)c(=O)c3ccccc3n12
 : .	-4.1	.	.	6	-9	0	2	3	.
COc1ccc2nc(Cl)cc(Cl)c2c1
 : 0	1.0	-0.4	12	-9	-8	9	-5	-15	9.3
C=C[C@@H]1c2cc(C)ccc2N(S(=O)(=O)c2ccc(C)cc2)[C@H](c2ccccc2)C1(C#N)C#N
 : 8	-0.6	0.0	12	.	-5	33	4	.	-0.9
CCN(CC(=O)NC1CCS(=O)(=O)C1)S(=O)(=O)c1ccccc1 (stereo unspecified)
 : 20	-6.8	0.0	11	22	5	-2	-2	-1	4.9
COc1ccc(S(=O)(=O)N(CC(=O)NCc2ccncc2)c2cc(C)cc(C)c2)cc1OC
 : -3	0.0	-1.3	2	-2	-5	-3	-1	-1	-4.8
Cc1cc(=O)oc2cc(OCC3CC(c4ccccc4)=NO3)ccc12 (stereo unspecified)
 : -14	-6.2	0.4	-14	29	-4	5	-5	-1	-1.7
Cc1cc(NS(=O)(=O)c2ccc(NC(=O)c3cccnc3)cc2)nc(C)n1
 : 9	1.5	0.4	4	10	1	-3	12	-8	-0.9
COC(=O)C1C2C=CC(C3CC23)C1C(=O)OCC(=O)c1ccc(OC)cc1 (stereo unspecified)
 : .	-0.6	-0.1	.	-11	1	4	3	4	.
O=C(COC(=O)c1ccc(F)cc1)NCc1ccc(F)cc1
 : 18	-1.5	0.8	16	.	.	-6	0	.	1.7
CCc1ccc(NS(=O)(=O)c2cc3c(cc2C)n(C)c(=O)c(=O)n3C)cc1
 : -8	3.8	-0.6	2	-3	-14	12	-16	13	-2.8
Clc1ccc(CSC2=NCCCN2)cc1Cl
 : .	-1.3	0.8	.	-16	?	-2	6	15	.
CCCNc1c(NS(=O)(=O)c2cccs2)c(=O)oc2ccccc12
 : -10	0.1	-0.7	-1	-1	-1	-4	-2	-7	-0.6
Cc1cc(C(=O)OCC(=O)N(CC(C)C)c2c(N)n(Cc3ccccc3)c(=O)[nH]c2=O)c(C)o1
 : 1	-1.8	0.4	4	2	0	0	-1	2	1.0
CC(C)(C)c1ccc(C(=O)N2CCC(C(=O)NCCC3=CCCCC3)CC2)cc1
 : .	-0.3	0.6	.	-7	-4	.	-6	3	.
CCOc1ccc(S(=O)(=O)NCCC(=O)NCC(c2ccc(OC)cc2)N2CCCC2)cc1 (stereo unspecified)
 : 3	0.6	0.7	4	.	.	-4	-2	.	0.8
O=C(CCn1c(=O)sc2ccccc21)NCCCn1ccnc1
 : .	-1.4	-0.4	.	6	-2	-5	-4	-17	.
C[C@@]12C(=O)N(c3ccccc3)C(=O)N1[C@@H]1c3ccccc3OC[C@@H]1[C@H]2c1ccccc1
 : -8	-2.8	0.2	-10	.	7	9	13	.	-2.0
COc1cccc(CNC(=O)CN(C)S(=O)(=O)c2ccc3c(c2)c(=O)n(C)c(=O)n3C)c1
 : 11	-0.4	0.4	11	-4	11	3	3	-2	0.8
O=C(O)C(Nc1nc(C(F)(F)F)nc2ccccc12)c1ccccc1 (stereo unspecified)
 : -1	-1.2	-0.6	6	0	-1	-4	-3	-4	2.3
Cc1cc(C)c[n+](C(C)C(=O)c2ccc(-c3ccccc3)cc2)c1 (stereo unspecified)
 : .	-2.0	0.1	.	-16	-7	93*	-2	19	.
CCCOc1ccc(C(CC(=O)O)NC(=O)c2ccc3c(c2)OCO3)cc1 (stereo unspecified)
 : -75	-1.7	0.5	-49	1	4	0	-7	-3	-20
Cc1cccc(-n2ncc3c(N(C)Cc4ccccc4)ncnc32)c1
 : -28	-3.6	-1.4	-16	-10	5	-1	-7	5	1.3
Cc1ccc(-c2cnc(SCCNC(=O)c3ccco3)[nH]2)cc1
 : -11	3.8	-0.5	-8	7	94*	-2	-2	4	-2.2
CCCCn1c(SCc2ncc(-c3ccccc3)o2)nc2cc(S(N)(=O)=O)ccc21
 : .	-0.8	0.4	.	-12	.	16	-5	30	.
CCCCN(C)c1ccc([N+](=O)[O-])cc1
 : 11	3.2	-0.2	-4	-17	-32	-2	0	-20	-2.6
CSc1ccc(CNC(=O)c2c(C)noc2C)s1
 : 1	0.2	1.5	13	4	.	-4	3	-15	1.6
COCc1c(C(=O)N/N=C(/C)c2cccs2)nnn1-c1nonc1N
 : .	2.0	0.1	.	20	.	-15	-5	-5	.
Cc1ccc(N2C(=O)C3CC(c4ccccc4)=C4C5C=CC(C6C(=O)N(c7ccc(C)cc7)C(=O)C56)C4C3C2=O)cc1 (stereo unspecified)
 : .	-1.3	0.2	.	0	-32	5	13	43	.
CCCc1nnc(NC(=O)CS(=O)(=O)c2ccc(C)cc2)s1
 : 8	2.6	-0.7	9	0	-1	2	-2	-30	2.6
CCOc1ccc(NC(=O)CCC(=O)NNC(=O)COc2ccc(C)cc2Br)cc1
 : 12	2.8	0.5	7	-9	-6	0	8	4	1.1
CC1CCCC(C)N1C(=O)COC(=O)c1ccc2ccccc2n1 (stereo unspecified)
 : -1	7.2	0.1	2	.	.	-8	8	.	-1.1
CC(C)(C)OC(=O)C[C@H]1C/C=C\C[C@@H](CC(=O)NCCO)C(=O)NC[C@@H](c2ccccc2)OC1=O
 : 5	5.4	1.6	9	.	8	1	1	.	0.6
Cc1ccc2nc(N(CCCN(C)C)C(=O)c3ccc(S(=O)(=O)N(C)C)cc3)sc2c1
 : .	10	-0.1	.	2	-20	2	-3	53	.
Cc1ccc(C)c(OCC(O)CN2CCCCC2C)c1 (stereo unspecified)
 : .	-2.1	0.2	.	-17	-1	4	-3	10	.
O=C(N/N=C/c1c(O)n(Cc2ccco2)c(=O)[nH]c1=O)c1ccccc1
 : .	-1.9	-0.3	.	-9	9	-2	5	-5	.
CNC(=O)CC(=O)Nc1ccccc1C(=O)O
 : .	-0.1	0.2	.	1	-5	-2	1	-2	.
Cc1ccc(S(=O)(=O)c2cc3c(=O)n4ccccc4nc3n(Cc3ccco3)c2=N)cc1
 : .	6.6	0.4	.	-9	-4	-15	-6	31	.

More structures.
Under each structure – rRNA inh HTS OD600	LANA-H2B inh	A1 inh	rRNA inh HTS	Calb FLC	ALR inh	Beta cell apopt	Beta2AR agonist	T cruzi repl	rRNA inh HTS RFP
CC(C)(C)OC(=O)C[C@H]1C/C=C\C[C@@H](CC(=O)NCCO)C(=O)NCCOC1=O
 : 11	3.4	-0.1	5	.	2	-1	-2	.	8.2
COc1ccc(C(=O)NCCS(=O)(=O)NCc2ccc(F)cc2)cc1
 : 9	-5.4	0.3	5	5	-3	-1	-3	-8	3.5
Cc1ccc(C)c(NC(=O)C(=O)NCC2CCCN2S(=O)(=O)c2cccs2)c1 (stereo unspecified)
 : -18	-5.0	0.7	-2	-8	-1	-3	-6	16	0.5
Cc1ccc(OCCCCN2CCc3ccccc3C2)cc1
 : -14	-4.8	0.1	-6	-27	-3	.	7	22	0.1
CCCC(O)(CCC)C(=O)NN(C(=O)OC)c1ccccc1
 : .	-10	0.3	.	.	-21	-3	-4	.	.
